# GLA inh pH 4.5 = qHTS Assay for Inhibitors of Human alpha-Galactosidase at pH 4.5; activity change, negative = inhibition, % at 105 µM; AID 1467, 2008; 230,000 tested, under 10 active; Alpha-galactosidase A (Homo sapiens), P06280; purified enzyme, 4-MU-alpha-Gal fluorescence, pH 4.5; inconclusive = small, poorly fitted or top-dose-only inhibition, or a rising curve; inactive = flat fitted curve, though single readings scatter; no compound was filed as active;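 note: 0% = full activity with enzyme and -100% = basal without enzyme; dose as in the result columns while the protocol names 77 µM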
# Target sequence (P06280 whole entry, looked up): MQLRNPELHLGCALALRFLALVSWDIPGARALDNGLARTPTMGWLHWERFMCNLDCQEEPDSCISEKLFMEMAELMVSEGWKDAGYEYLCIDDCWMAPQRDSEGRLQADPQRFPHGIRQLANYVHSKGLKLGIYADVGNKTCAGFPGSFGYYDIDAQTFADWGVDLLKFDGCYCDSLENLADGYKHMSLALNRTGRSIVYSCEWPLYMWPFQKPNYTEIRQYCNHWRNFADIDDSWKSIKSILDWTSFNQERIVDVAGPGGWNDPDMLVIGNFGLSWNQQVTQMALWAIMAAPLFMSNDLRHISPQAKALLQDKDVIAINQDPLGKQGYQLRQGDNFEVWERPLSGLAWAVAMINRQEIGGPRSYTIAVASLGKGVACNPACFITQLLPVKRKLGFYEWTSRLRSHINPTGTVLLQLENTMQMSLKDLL
# miR-21 FLuc = qHTS Assay for Modulators of miRNAs and/orActivators of miR-21; HeLa miR-21 FLuc reporter, luciferase, 48 h; Potency, µM (highest dose often 38.3 µM), for inactives: at the top dose reporter change, positive = more light; 340,000 tested, under 10 active; AID 2288, 2010; active = well fitted rising curve with a large enough effect; inconclusive = small, poorly fitted or top-dose-only effect; inactive = no such curve, though single readings can be large or run the other way;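 note: % of control where 0% means no effect; miR-21 action dims this reporter so a rising signal means less miR-21 action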
#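 Luminescence from a firefly luciferase reporter carrying a miR-21 binding site downstream, stably expressed under a CMV promoter in HeLa cells that make miR-21 endogenously, reports miRNA modulation after 48 h compound exposure up to approximately 40uM final.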
# Rango complex inh = qHTS Assay for Inhibitors of Rango (Ran-regulated importin-beta cargo) - Importin beta complex formation. Importin subunit beta-1 (Homo sapiens), Q14974. actives 0.031% (n = 340,000). AID 540263, 2011. Potency, µM (top dose mostly 92.2 µM), without a hit: top-dose inhibition of complex formation. Rango CFP/YFP FRET sensor + importin beta, 45 min; active = rising FRET ratio curve, often small or poorly fitted; inconclusive = mostly compound fluorescence or quenching in the first reads; inactive = flat curves in all reads;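 note: potency is the fitted concentration of half-maximal effect; 0% = DMSO wells and 100% = buffer wells lacking importin beta; nearly all actives have a fitted effect of over 15% in size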
#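 FRET biosensor Rango (snurportin 1 IBB between N-terminal EYFP and C-terminal Cerulean), 50 nM in PBS/1 mM DTT/0.02% Tween-20/0.1% BSA, preincubated 5 min RT with compound; 0.125 microM importin beta added, 45 min RT, CFP/YFP FRET ratio read.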
# Rango dissoc inh = qHTS Assay for Inhibitors of RanGTP induced Rango (Ran-regulated importin-beta cargo) - Importin beta complex dissociation | actives 0.071% (n = 340,000) | AID 540253, 2011 | Snurportin-1 (Homo sapiens) + GTP-binding nuclear protein Ran (Homo sapiens) + Importin … | Potency, µM (series often up to 46.1 µM), for the others: at the highest dose activity change, negative = inhibition | Biochemical FRET Rango-importin beta, RanGTP-induced dissociation; active means falling FRET ratio curve, often poorly fitted, with flat reads before Ran was added; inconclusive means other falling curves, or compound fluorescence or quenching; inactive means flat or rising ratio curve;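 note: potency is the fitted concentration of half-maximal effect; % of control where 0% means no effect; nearly all actives have a fitted effect of over 45% in size; -100% = wells without RanGTP and RCC1; the record marks most hits as doubtful in a second field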
#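 Rango (0.1 uM)–importin beta (0.25 uM) complex; RanGTP-RCC1 trigger; 45 min RT; CFP/YFP FRET read.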
# * marks the source's active call; other numbers are inactive results; ? = inconclusive; . = not tested or not shown; & = joins results of further samples. The list is partial; the hit share may differ from the screen's.
# The line under a structure holds: GLA inh pH 4.5	miR-21 FLuc	Rango complex inh	Rango dissoc inh
1: FC(F)(F)c1cccc(N2CCN(Cc3ccoc3)CC2)c1
→ -3	-6%	0.3%	-16%
2: Cc1ccc(C2=CC(c3ccccc3)n3ncnc3N2)c(C)c1 (stereo not given)
→ .	.	-4.0%	-16%
3: NC(=O)C[n+]1cccc(/C=N/O)c1
→ -10	-2%	0.0%	-2%
4: COC(=O)c1c(C(=O)c2ccc(Br)cc2)n(C)c2ccccc12
→ .	.	1.3%	4%
5: O=C(c1ccco1)N1CCN(CCOc2ccccc2)CC1
→ -2	-6%	4.0%	7%
6: COc1ccc(NC(=O)CCCNS(=O)(=O)c2cccs2)cc1
→ 3	-7%	0.2%	12%
7: CSc1nc(N2CCOCC2)c2c(c1C#N)CCCCC2
→ 7	-3%	5.4%	-14%
8: COc1cccc(NC(=O)CN(C)C(=O)Cc2ccc3c(c2)CCC3)c1
→ .	.	-2.6%	-12%
9: Cc1noc2ncnc(Sc3ccc(Br)cc3)c12
→ 1	0%	-2.5%	-13%
10: Cc1ccc(CNC(=O)C2CCCN2C(=O)Nc2ccc(C)cc2)cc1 (stereo not given)
→ .	-1%	2.8%	-2%
11: NC(=O)CC(NC(=O)Cc1cccc2ccccc12)c1ccc(NCCN2CCCC2)c([N+](=O)[O-])c1 (stereo not given)
→ .	-1%	-2.1%	-23%
12: O=C(O)CCCn1ccc2cc(S(=O)(=O)N3CCCC3)ccc21
→ .	-2%	0.3%	-5%
13: O=C(CC1CCCC1)N1CCN(S(=O)(=O)c2cccc(F)c2)CC1
→ .	.	5.2%	-8%
14: COc1ccc(Cn2c(=N)c(C(=O)NCC3CCCO3)cc3c(=O)n4ccccc4nc32)cc1 (stereo not given)
→ .	1%	?	?
15: CCC(C)(C)n1nnnc1C(c1ccc(C)cc1)N1CCN(C(=O)c2ccco2)CC1 (stereo not given)
→ -6	-1%	-3.6%	18%
16: O=[N+]([O-])c1cccc(C2=NCCC(c3ccccc3)O2)c1 (stereo not given)
→ 4	-17%	-1.4%	2%
17: CCN(Cc1ccccc1)C(=S)Nc1cc(C(=O)OC)ccc1C(=O)OC
→ -10	-11%	4.1%	-2%
18: O=C(COC(=O)c1cc[n+]([O-])cc1)Nc1ccc([N+](=O)[O-])cc1C(F)(F)F
→ .	.	0.0%	-2%
19: COC(CNC(=O)C(=O)Nc1cc2c3c(c1)CCN3C(=O)CC2)OC
→ .	1%	-5.6%	1%
20: O=C(CS(=O)(=O)Cc1ccccc1)NCC1CCCO1 (stereo not given)
→ -9	-11%	-3.9%	-15%
21: CNC(=O)NC(=O)C(C)OC(=O)c1c2c(nc3ccccc13)/C(=C/c1cccs1)CC2 (stereo not given)
→ 6	-45%	?	?
22: CC(C)(C)NC(=O)Cn1nnc(-c2ccc(Cl)cc2)n1
→ 2	-20%	0.7%	2%
23: O=C(O)COc1ccc(/C=N/NC(=O)/C(=C/C=C/c2ccccc2)NC(=O)c2ccccc2)cc1
→ .	-2%	-2.7%	-6%
24: O=C(OCc1ccccc1)C1=NNC2C(=O)N(Cc3ccccc3)C(=O)C12 (stereo not given)
→ 12	2%	-1.1%	7%
25: O=C(NCCN1CCOCC1)c1cc([N+](=O)[O-])ccc1Cl
→ .	0%	-0.5%	14%
26: O=C1C=C(c2ccc(F)c(Cl)c2)C[C@@H](c2ccc(F)cc2)C1
→ .	.	-2.5%	-1%
27: O=C(CNC(=O)c1ccc(Br)o1)NCC1COc2ccccc2O1 (stereo not given)
→ .	.	-2.9%	2%
28: O=C(CSc1nnc(-c2cccnc2)n1-c1ccccc1)Nc1ccc2c(c1)OCO2
→ 1	1%	-2.4%	-3%
29: Cc1ccc(C)c(Nc2ccc3nonc3c2[N+](=O)[O-])c1
→ .	-12%	-0.4%	-10%
30: CC(=O)N1CCN(C(=O)CSc2ncnc3sc(C)c(C)c23)CC1
→ .	.	-1.3%	7%
31: CCOc1ccccc1CNC(=O)CCn1ccc2cc(S(=O)(=O)N3CCCCC3)ccc21
→ .	11%&-7%	4.3%	-8%
32: Cc1ccc(C(=O)OCC(=O)NCc2ccccc2)cc1S(=O)(=O)N1CCCCC1
→ .	.	2.1%	6%
33: O=C(NCc1ccc2c(c1)OCO2)c1nc(Cn2cc(Br)cn2)no1
→ .	-2%	-0.4%	4%
34: CN(Cc1ccccc1)C(=O)c1ccc2c(c1)NC(=O)C(N1CCOCC1)S2 (stereo not given)
→ 4	11%	-0.6%	10%
35: COCc1nc2ccccc2n1Cc1cccc(C)c1
→ 2	-33%&-15%	?	-13%
36: O=C(Nc1ccccc1-c1ccccc1)c1ccc(=O)[nH]n1
→ .	-80%	-0.6%	?
37: Cc1nc(Cl)sc1C(=O)Nc1ccccc1Cl
→ .	-3%	4.7%	-15%
38: Cc1ccc(C(c2nnnn2C2CCCCC2)N(C)C2CCCCC2)cc1 (stereo not given)
→ -6	-5%	0.3%	3%
39: COc1ccc(CNn2cnnc2)c(O)c1
→ .	-3%	1.7%	2%
40: C=CCn1nc(-c2ccccc2)cc1C(=O)OCC
→ .	.	1.3%	1%
41: O=C(N/N=C/c1c[nH]c2ccccc12)C1CC1(c1ccccc1)c1ccccc1 (stereo not given)
→ -5	20%	-0.6%	0%
42: Cc1cccn2c(=O)c(/C=C(\C#N)C(=O)NCc3ccco3)c(N3CCOCC3)nc12
→ -6	6%	?	?
43: O=C(O)CCCCCNS(=O)(=O)c1cccc2nsnc12
→ 4	-1%	0.1%	10%
44: O=C(NCc1ccccc1F)C1CC(=O)N(c2ccc3c(c2)OCCO3)C1 (stereo not given)
→ .	.	0.0%	12%
45: CCOC(=O)CCNC(=O)N1CCCC(C(=O)c2ccc3c(c2)OCO3)C1 (stereo not given)
→ 4	0%	-3.4%	0%
46: Cc1cc(NC(=O)CSc2nc3c(cc2C#N)CCCC3)no1
→ 1	-73%	?	-22%
47: CC(C)Cn1c(=O)oc2ccccc21
→ 5	2%	-0.9%	10%
48: Cc1nc(N)[nH]c(=O)c1CCC(=O)OCC(C)C
→ 4	-8%	-0.3%	3%
49: COc1ccccc1-[n+]1c(C)cc(/C=C2\Sc3ccccc3N2C)cc1C
→ -9	?	?	?
50: O=C(NCC(=O)N1CCN(c2ccccc2)CC1)c1cccs1
→ .	-31%	-2.2%	1%

# Next part
# The line under a structure holds: GLA inh pH 4.5	miR-21 FLuc	Rango complex inh	Rango dissoc inh
51: COc1cc(NC(=O)c2ccc(OC)c([N+](=O)[O-])c2)ccc1NC(=O)c1ccco1
→ -10	-9%	6.0%	14%
52: COCCn1c(=NC(=O)CSCC(=O)Nc2cc(C)on2)sc2cc(C(=O)OC)ccc21
→ 2	-11%	-1.5%	-11%
53: COc1ccc(C(=O)NC(CC(C)C)C(=O)O)cc1 (stereo not given)
→ .	.	-0.6%	17%
54: Nn1c(-c2ccc(O)cc2)nnc1-c1ccc(O)cc1
→ 1	9%	-2.8%	-1%
55: O=C(NCC1CCN(S(=O)(=O)c2ccccc2)CC1)Nc1ccccc1
→ 2	4%	-1.9%	8%
56: COc1ccccc1N1CCN(C2CCCN(C(=O)Cn3cccn3)C2)CC1 (stereo not given)
→ .	0%	-1.0%	-2%
57: CC(=O)c1cccc(NC(=O)c2cc3ccccn3n2)c1
→ 2	-28%	-2.8%	2%
58: O=C(CN1CCNC(=O)C1)NCCc1ccc(Cl)cc1Cl
→ 9	0%	-1.6%	16%
59: O=C(Nc1ccc(Cl)cc1)[C@@H]1[C@@H]2C(=O)N(c3cccc(F)c3)C(=O)[C@@H]2[C@H]2C=CC=NN21
→ -4	-16%	?	-22%
60: O=C(Nc1ccc2c(c1)OCCO2)c1cnn(-c2ccccc2)n1
→ .	.	2.7%	-2%
61: O=C(NCc1ccccn1)c1cn(CCc2ccccc2)nn1
→ 4	-6%	-1.3%	5%
62: CCCN1Cc2cccc(C(N)=O)c2C1=O
→ -5	-6%	-4.9%	0%
63: O=C(/C=C/c1cn(CC(O)CN2CCCCC2)c2ccccc12)c1ccccc1 (stereo not given)
→ -7	-1%	?	?
64: COc1ccccc1C(=O)NNC(=O)c1cccc(Cl)c1
→ 2	-27%	-1.6%	18%
65: CSc1nc2sc3c(c2c(=O)[nH]1)CCc1ccccc1-3
→ 1	-6%	3.2%	15%
66: S=c1[nH]nc(-c2ccco2)n1/N=C/c1ccc(Cl)cc1Cl
→ 3	1%	5.3%	6%
67: N[C@@H]1CONC1=O
→ 0&-2&0&4	-2%	.	.
68: CC1CN(C(=O)c2cc3cc(F)ccc3[nH]2)CC(C)O1 (stereo not given)
→ .	-4%	-4.3%	0%
69: O=C(NCc1ccc(C(F)(F)F)cc1)C1CC(c2c(Cl)cccc2Cl)=NO1 (stereo not given)
→ -12	3%	-1.7%	10%
70: CC(C(=O)Nc1ccccc1C(=O)N1CCOCC1)N(c1ccccc1)S(C)(=O)=O (stereo not given)
→ -10	-7%	5.9%	9%
71: COc1ccc(C(=O)N/N=C(\C)CC(=O)Nc2ccccn2)cc1OC
→ .	7%	-4.2%	25%
72: CCCC(=O)C1=C(O)C(C(=O)OC)C(C)(C)CC1=Nc1ccncc1 (stereo not given)
→ -21	-9%	0.9%	-5%
73: COc1ccc(CN2CCCC(C(=O)Nc3cccc(-n4cccn4)c3)C2)cc1 (stereo not given)
→ .	11%	0.2%	0%
74: Cc1nc2ccc(NC(=O)c3ccc(Cl)c([N+](=O)[O-])c3)cc2s1
→ -3	-17%	-4.2%	8%
75: Cc1cccc(N2CCN(C(=O)N3CCOCC3)CC2)c1C
→ 6	-2%	6.4%	12%
76: COc1ccc(S(=O)(=O)NNC(=O)c2csc(-n3nc(C)cc3C(F)(F)F)n2)cc1
→ -3	-11%	-2.5%	-19%
77: COC(=O)c1c(NC(=O)CN2CCN(c3ccccc3OC)CC2)c2c(C)cccc2n1C
→ -4	-3%	.	.
78: COc1cc(S(=O)(=O)N2CCOCC2)cc(C(=O)OCC(=O)NC2CCCCC2)c1OC
→ .	.	?	-24%
79: CC(=O)Nc1ccc(NC(=O)CSc2nc3ccccc3c(=O)n2CCCN2CCOCC2)cc1
→ .	.	0.5%	1%
80: CC1=C(C(=O)OCc2ccc3c(c2)OCO3)C(c2ccccc2)NC(=O)N1 (stereo not given)
→ -7	?	-1.9%	0%
81: N#CCCN(C(=O)COC(=O)c1cc2ccccc2oc1=O)c1ccccc1
→ .	.	0.7%	0%
82: O=C(CCn1c(=O)c2sccc2n(Cc2cc(=O)n3ccccc3n2)c1=O)NCc1ccco1
→ -8	-1%	-0.9%	-8%
83: Cn1c(N)c(C(=O)COC(=O)c2cc(S(=O)(=O)NCc3ccccc3)ccc2O)c(=O)n(C)c1=O
→ .	.	-3.2%	7%
84: O=C(O)c1ccc(OCC(O)Cn2c3ccccc3c3ccccc32)cc1 (stereo not given)
→ 6	2%	1.4%	0%
85: Cn1cc([N+](=O)[O-])c(C(=O)N/N=C/c2ccccc2)n1
→ 1	-8%	-2.5%	10%

# Entries of single compounds, quoted from the list. Values in the order: GLA inh pH 4.5, miR-21 FLuc, Rango complex inh, Rango dissoc inh
# O=[N+]([O-])c1cccc(C2=NCCC(c3ccccc3)O2)c1 (stereo not given) in the list: 4, -17%, -1.4%, 2%
# COc1ccccc1N1CCN(C2CCCN(C(=O)Cn3cccn3)C2)CC1 (stereo not given) in the list: ., 0%, -1.0%, -2%
# O=C(O)c1ccc(OCC(O)Cn2c3ccccc3c3ccccc32)cc1 (stereo not given) in the list: 6, 2%, 1.4%, 0%
# COCc1nc2ccccc2n1Cc1cccc(C)c1 in the list: 2, -33%&-15%, ?, -13%
# O=C(OCc1ccccc1)C1=NNC2C(=O)N(Cc3ccccc3)C(=O)C12 (stereo not given) in the list: 12, 2%, -1.1%, 7%

# Entries by screen from the entries so far.
# miR-21 FLuc, entries 81 to 85, in order: ., -1%, ., 2%, -8%
# Rango complex inh, entries 81 to 85, in order: 0.7%, -0.9%, -3.2%, 1.4%, -2.5%

# High-throughput results deposited in PubChem by National Center for Advancing Translational Sciences (NCATS).
